# HSD17B inh – qHTS Assay for Inhibitors of HSD17B4, hydroxysteroid (17-beta) dehydrogenase 4 | recombinant HSD17B10, NADH fluorescence kinetic; many of its hits are not listed in these tables | Potency, µM (titrated, usually from 57.1 µM), inactives show at the highest dose activity change, negative = inhibition, actives largely listed as inhibitors | 75,000 tested, 7.6% active | AID 893, 2007; active = well fitted inhibition curve with a large enough effect; inconclusive = small, poorly fitted or top-dose-only effect; inactive = no such curve, though single readings can be large or run the other way;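 also: the protocol describes HADH2 (HSD17B10) and not the HSD17B4 of the title; nearly all actives have a fitted effect of over 70% in size; most hits overshoot -100% by far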
#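 20 nM HADH2, pH 9.0 Tris/Tween; cpd preinc 15 min RT; start w/ 1 mM NAD+ + 90 uM b-hydroxybutyryl-CoA; kinetic fluor ex360/em450 q30s x 4 min; delta last-first.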
# Active calls of the source: *; u = inconclusive; [ ] = another dose, or the depositor's remark. % is scaled to controls: 0 for no effect and ±100 for the full control effect; potency is read from the fitted curve at half-maximal effect. An excerpt, so the mix of outcomes need not match the whole.
Molecule	HSD17B inh
CN1CCN(CC(C)(C)NS(=O)(=O)c2ccc(Cl)cc2)CC1	5%
Cn1c(N)c(C(=O)COC(=O)Cn2cc(C(F)(F)F)ccc2=O)c(=O)n(C)c1=O	2%
CC1(C)Cc2nc3n[nH]c(N)c3cc2CO1	-9%
CC(OC(=O)c1cccs1)C(=O)NCC1CCCO1 (stereo unspecified)	7%
O=C(Oc1ccccc1)c1ccc(COC(=O)c2cnccn2)cc1	4%
COC(=O)c1ccc(CSc2nnc3ccccn23)o1	10%
c1ccc2sc(SCCSc3nc4ccccc4s3)nc2c1	3%[11.4 µM]
COc1cccc(/C=C/C(=O)O)c1C(C)C	-29%
CCCCN(c1ccccc1)S(=O)(=O)c1ccc2c(c1)CCN2C(=O)CCC(=O)O	-7%
O=C(NCC1CCCO1)c1cc2ccccc2[nH]1 (stereo unspecified)	32µM*
CS(=O)(=O)N1CCC2(CC1)CN(Cc1ccc(C#N)cc1)C2	6%
CCCCS(=O)CC(CS(=O)CCCC)OC(=O)c1ccccc1 (stereo unspecified)	14%
Cc1c(C(=O)O)oc2c1C(O)CC(C)(C)C2 (stereo unspecified)	8%
O=c1[nH]c(SCc2n[nH]c(=S)n2-c2ccccc2)nc2ccccc12	0%
CC1CCC(NC(=O)CN2C(=O)C3CCCN3c3ncc(Cl)cc32)CC1 (stereo unspecified)	u
CC1CN(S(=O)(=O)c2cn(C)c(=O)n(C)c2=O)CC(C)O1 (stereo unspecified)	-7%
O=C(c1ccccc1Cl)N1CCCC(c2nc3c(nnn3Cc3ccccc3)c(=O)[nH]2)C1 (stereo unspecified)	4%
Cc1ccc2c(c1)-c1c(cnn1CC(=O)N(CCC#N)c1ccccc1)CO2	-2%
COc1ccc(C(N)CCc2ccc(C)o2)cc1 (stereo unspecified)	4%
CCCN(CCC)C(=O)c1ccc2c(c1)N(Cc1ccccc1)C(=O)CS2=O (stereo unspecified)	-7%

# More compounds:
Molecule	HSD17B inh
CC(C)(C)C(=O)NC1(C(F)(F)F)C(=O)Nc2c1c(=O)[nH]c(=O)n2Cc1ccco1 (stereo unspecified)	7%
CC1(C)Cc2cccc(OCC(O)CNCc3ccccn3)c2O1 (stereo unspecified)	4%
COc1cc(C2Nc3ccccc3C(=O)N2c2ccccc2OC)ccc1O (stereo unspecified)	25µM*
Cc1cc(C)n(-c2nc3sc4c(c3c3nnc(SCC(N)=O)n23)CC(C)(C)OC4)n1	25µM*
COc1ccc(CCN2C(=O)CCC2(C)C(=O)NCc2cccnc2)cc1OC (stereo unspecified)	0%
COC(=O)/C=C(\C)NC(=O)c1ccccc1Cl	3%
CC(C)(C)n1nnnc1C(c1cccnc1)N1CCN(C(=O)c2ccco2)CC1 (stereo unspecified)	9%
CCOc1ccc2nc(NC(=O)C3CCCN(S(=O)(=O)c4c(C)noc4C)C3)sc2c1 (stereo unspecified)	-16%
O=C(Cn1nnc(-c2ccccc2F)n1)Nc1cccc2ncccc12	2%
CCn1c(N)nc2c1c(=O)n(C)c(=O)n2C	7%
CCOc1ccc(S(=O)(=O)N2Cc3ccccc3CC2C(=O)NCCCn2ccnc2)cc1 (stereo unspecified)	3%
CC1(C)CC(=O)C=C(NCCN2CCN(C(=O)Nc3ccc(Cl)cc3)CC2)C1	9%
CCCCOCCOCCSC#N	-3%
COc1ccc2c(c1)c(CC(=O)O)c(C)n2Cc1ccc(Cl)cc1	-18%
COc1ccc(OC)c(C(=O)CSc2nc3cccnc3n2C)c1	1%
Nc1nc(-c2cccnc2)nn1C(=O)CCc1ccccc1	6%
Cc1ccc(NC(=O)CN2C(=O)C(C)Oc3ccccc32)nc1 (stereo unspecified)	14%
CCCOC(=O)c1ccc(-c2c(C)noc2-c2ccc(OC)cc2O)o1	-7%
COC(=O)CCCCC(=O)OC	3%
N#Cc1cnc(SCC(=O)Nc2ccccc2C(F)(F)F)nc1N	-25%

# Continued:
Molecule	HSD17B inh
CCC(=O)N(CCO)Cc1cc2ccc(C)c(C)c2[nH]c1=O	u
O=C(NC1CCCCC1)NC1CCN(CC(=O)N2CCOCC2)CC1	1%
NC(=O)c1ccsc1NC(=O)CN1C(=O)C2CC=CCC2C1=O (stereo unspecified)	1%
C/C(N)=C(/C#N)C(=O)COC(=O)CCSc1ccccc1	4%
Cc1ccc(-c2nnc(SCC#N)n2N)cc1	6%
c1coc(CNc2nc3nonc3nc2NCc2ccco2)c1	-20%
CCOC(=O)c1cc(NC(=O)N2CCOCC2)c(C)nc1C	-18%
CSc1nsc(SCC(=O)Nc2cccc(C(C)=O)c2)n1	-3%
O=C1c2cccc(O)c2C(=O)c2c(O[C@@H]3O[C@H](CO)[C@@H](O)[C@H](O)[C@@H]3O)cccc21	-17%[11.4 µM]
Cc1cccc(C)c1NC(=O)CCCSc1nnc(-c2ccco2)n1-c1ccccc1	6%
CC(C)CC1(C(=O)NCCc2c[nH]c3ccccc23)C=CCN1C(=O)c1ccccc1 (stereo unspecified)	-2%
CCOC(=O)c1c(NC(=O)CSc2nc3cccnc3n2C)sc(C(C)=O)c1C	-4%
CCOc1cc(S(=O)(=O)NCc2ccc3c(c2)OCO3)ccc1F	0%
CC(=O)c1ccc(OCC(O)Cn2nnc3ccccc32)cc1 (stereo unspecified)	-7%
Cc1ccc(C(=O)NC=C(Cl)Cl)cc1	1%
COc1ccc(-c2noc(-c3ccc(Cl)cc3)n2)cc1	6%
COc1ccc(S(=O)(=O)Nc2ccc(Cl)cn2)c(C)c1C	u
CCOC(=O)C1CCN(c2nc(C)nc3c2oc2ccccc23)CC1	11%
Cc1ccc(C)c(N2CCN(C(=O)c3ccc(NS(=O)(=O)c4c(C)noc4C)cc3)CC2)c1	3%
CCCNS(=O)(=O)c1ccc(CCC(=O)NCc2cccnc2)cc1	0%

# A different layout for some results above:
compound: CCC(=O)N(CCO)Cc1cc2ccc(C)c(C)c2[nH]c1=O
  HSD17B inh: u
compound: O=C(NC1CCCCC1)NC1CCN(CC(=O)N2CCOCC2)CC1
  HSD17B inh: 1%

# (more compounds)
SMILES,HSD17B inh
Cc1ccc2c(c1)nnn2C1CCN(CC(=O)N2c3ccccc3CC2C)CC1 (stereo unspecified),4%
O=C1Nc2ccccc2C12OCCCCO2,8%
O=C(O)CCc1ccc(-c2ccc(Br)cc2)n1CC(=O)O,u
CCOC(=O)N1CCN(C(=O)C(CC)n2nc(C)c3sc4ccccc4c3c2=O)CC1 (stereo unspecified),-14%
CCC(C(=O)N1CCN(c2ccccn2)CC1)n1nc(C)n2c(cc3occc32)c1=O (stereo unspecified),-17%
COC(=O)c1cc(-c2c[nH]c3ccccc23)n[nH]1,9%
CC(=O)O[C@@H]1[C@H]([N+]2(C)CCCCC2)C[C@@H]2[C@@H]3CC[C@@H]4C[C@@H](OC(C)=O)[C@H]([N+]5(C)CCCCC5)C[C@@]4(C)[C@H]3CC[C@]21C,-4%
CCn1cnc2c1c(=O)n(Cc1csc(-c3ccccc3)n1)c(=O)n2Cc1ccccc1,u

# Other results follow.
SMILES,HSD17B inh
CCOC(=O)CCNC(=O)CNC(=O)OCc1ccccc1,7%
CCn1c(N2CCN(CC(=O)c3c[nH]c4ccccc34)CC2)nc2c1c(=O)[nH]c(=O)n2C,-10%
COc1cccc(C(=O)N2CCN(C(=O)c3cccc(F)c3)CC2)c1,13%
Nc1nc(-c2cccs2)cs1,-9%[11.4 µM]
Cc1cc(Cl)c(S(=O)(=O)NC(C(=O)O)c2ccccc2)cc1OCC(N)=O (stereo unspecified),7%
O=C(O)c1ccccc1-c1ccccc1C(=O)Nc1ccc2c(c1)Cc1ccccc1-2,4%[11.4 µM]
Oc1c([C@H](Nc2ccccn2)c2ccccc2)ccc2cccnc12,5%[11.4 µM]
c1ccc(-c2nc3nonc3c3nc4ccccc4n23)cc1,32µM*

# (listing goes on)
SMILES,HSD17B inh
CC1CCCN(C(=O)C(Cc2ccccc2)n2cccc2)C1 (stereo unspecified),-10%
O=C(CN1CCOCC1)Nc1ncccn1,8%
COc1ccc(Cl)cc1NC(=O)CSc1nnc(Cc2cccn2C)n1-c1ccc(F)cc1,-12%
CCOC(=O)c1ccc2ncc(C(=O)OCC)c(NCCN(C)C)c2c1,1%
c1ccc(CO[C@H]2NCCN2Cc2ccccc2)cc1,-2%[11.4 µM]
Cc1oc(/N=C/c2ccc3c(c2)OCO3)c(C#N)c1C,8%
OC[C@H]1O[C@@H](O[C@@H]2[C@@H](CO)O[C@](O)(CO)[C@H]2O)[C@H](O)[C@@H](O)[C@H]1O,-5%
COc1ccc2c(c1)OC13CCN(C)CC1C2C(C(=O)c1ccc(F)cc1)C(=O)N3 (stereo unspecified),2%

# Other entries.
SMILES,HSD17B inh
O=S(=O)(c1ccccc1)N1CCC2(CCN(Cc3ccncc3)CC2)CC1,6%
Cc1noc(C)c1CSc1ncnc2ccccc12,-2%
Cc1cc(N2CCCC2)n2nc(C)nc2n1,5%
Cc1cccc(C)c1NC(=O)Cn1c(=O)n(CCC(=O)NCc2ccco2)c(=O)c2sccc21,4%
CN1CCOc2cc(S(=O)(=O)Nc3ccc(F)cc3)ccc21,2%
COc1cccc(NC(=O)CSc2nc3ccccc3c(=O)n2CCCC(=O)N2CCCC2)c1,3%
O=C(c1ccc(S(=O)(=O)N2CCC(c3nc4ccccc4s3)CC2)cc1)N1CCOCC1,7%
COCCCNC(=O)CCC(=O)Nc1ccc2nc(N3CCOCC3)cc(C)c2c1,25µM*

# The list goes on, overlapping the part above by 5 compounds.
SMILES,HSD17B inh
Cc1cccc(C)c1NC(=O)Cn1c(=O)n(CCC(=O)NCc2ccco2)c(=O)c2sccc21,4%
CN1CCOc2cc(S(=O)(=O)Nc3ccc(F)cc3)ccc21,2%
COc1cccc(NC(=O)CSc2nc3ccccc3c(=O)n2CCCC(=O)N2CCCC2)c1,3%
O=C(c1ccc(S(=O)(=O)N2CCC(c3nc4ccccc4s3)CC2)cc1)N1CCOCC1,7%
COCCCNC(=O)CCC(=O)Nc1ccc2nc(N3CCOCC3)cc(C)c2c1,25µM*
COc1ccc(C(=O)Cn2nnc(-c3cccs3)n2)cc1,3%
COC(=O)c1cccnc1-n1c(=O)c2cccnc2n(Cc2cccc(OC)c2)c1=O,9%
CN(C)c1ccc(-c2cncnc2NCc2cccnc2)cc1,-6%
CCOC(=O)c1sc(NC(=O)C2CCCO2)c(C(=O)OCC)c1C (stereo unspecified),-19%
COc1ccc(NC(=O)COC(=O)c2ccc(Br)o2)cc1OC,-1%
CCc1nccn1S(=O)(=O)c1ccc(OC)c(OC)c1,0%
C[C@H](O)C(=O)Nc1c(I)c(C(=O)NC(CO)CO)c(I)c(C(=O)NC(CO)CO)c1I,-7%[25.6 µM]
CO[C@H]1COC(=O)C/C=C\[C@@H](C)[C@H](OC)COC(=O)[C@H]2CCCN2C(=O)C/C=C\[C@@H]1C,2%[11.4 µM]

# Next part
SMILES,HSD17B inh
CS(=O)(=O)N1CCN(Cc2ccccc2C(F)(F)F)CC1,6%
Cc1[nH]c2ccccc2c1Cc1nnc(SCC(=O)NCc2ccco2)o1,-5%
CCCCCCC(=O)N(O)C1CC(=O)N(c2ccc(Br)cc2)C1=O (stereo unspecified),u
COCCCNC(=O)CCn1c(=O)c2ccccc2n(CC(=O)Nc2ccccc2C)c1=O,6%
CCOc1ccc2nc(NC(=O)CS(=O)(=O)c3ccccc3)sc2c1,-3%
O=c1c2c(nc3nc(Cc4ccccc4)[nH]n13)CCC2,6%
Cc1cccn2c(=O)c(C=Nc3ccc(Cl)cc3)c(NCCO)nc12,32µM*
CC1(C)CC(=O)C(C=NCCN2CCN(C(=O)NC34CC5CC(CC(C5)C3)C4)CC2)=C(O)C1,-1%

# Next compounds
SMILES,HSD17B inh
Cc1cc(-c2nnc(SCc3ccccn3)o2)no1,14%
O=C(NCCCN1CCOCC1)C1(c2ccccc2)CCCC1,3%
O=C(CN1CCN(C(=O)c2ccccc2)CC1)Nc1ccc(Br)cn1,11%
COc1cc(C)nc(OCCNS(=O)(=O)c2cc(C)ccc2C)n1,-3%
Cc1onc(-c2c(Cl)cccc2Cl)c1C(=O)NCC1CCCO1 (stereo unspecified),2%
O=C(Cn1nnc(-c2ccccc2F)n1)NCCc1ccccc1,-1%
O=C(NC1CCCCC1)c1ccc(S(=O)(=O)N2CCCCC2)cc1,-1%
CCOC(=O)CSc1nnc(CNC(=O)c2ccccc2OC)n1-c1ccc(OC)cc1,-4%

# More records follow.
SMILES,HSD17B inh
Cc1cccc(OCCCc2c(C)n[nH]c2C)c1,-17%
CN(C)c1nc(N)nc(Cn2ccnc2)n1,6%
CCOC(=O)c1ccccc1N/C=C1\CCCC1=O,25µM*
Cc1c(Cl)cccc1Nc1nc(N)nc(CSc2ncccn2)n1,1%
CC(C)(C)N1C(=O)[C@H]2[C@H]3[C@H](O)[C@H](O)C/C(=N/NC(=O)OCc4ccccc4)[C@H]3CC[C@@H]2C1=O,10%[11.4 µM]
COC(=O)C1=C(Cn2cnc3ccccc32)NC(=O)NC1c1cc(C)ccc1C (stereo unspecified),9%
CCc1ccc2c(-c3cccc(Cl)c3)nc(=O)n(CC)c2n1,32µM*
O=C(CC(=O)c1ccncc1)c1ccccc1,13%[11.4 µM]

# The list continues.
SMILES,HSD17B inh
CCOC(=O)c1ccc2nc(C)c3c(c2c1)OC(C)C3 (stereo unspecified),1%
CCCCOC(=O)CCn1c(=S)oc2ccccc21,1%
O=C(Nc1nc(-c2ccc(S(=O)(=O)N3CCCCCC3)cc2)cs1)c1cccs1,u
COc1ccccc1N(CCC#N)C(=O)CSc1ccc2c(c1)OCCO2,3%

# Part of the list above, field by field.
CCOC(=O)c1ccc2nc(C)c3c(c2c1)OC(C)C3 (stereo unspecified)
  HSD17B inh: 1%

CCCCOC(=O)CCn1c(=S)oc2ccccc21
  HSD17B inh: 1%

O=C(Nc1nc(-c2ccc(S(=O)(=O)N3CCCCCC3)cc2)cs1)c1cccs1
  HSD17B inh: u

# Source: PubChem BioAssay (National Center for Advancing Translational Sciences (NCATS))
